Screening data as filed in PubChem.
AF4-AF9 inh: inhibitors of AF4 peptide binding to AF9, primary screen, biochemical, AlphaScreen, biotin-AF4 peptide, FLAG-AF9, single point | Protein AF-9 (Homo sapiens), P42568 | inhibition, % at 10 µM | 350,000 compounds, 0.47% hits | AID 651704, 2012;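 active = every replicate reaching a set inhibition limit, whatever the replicate mean, cut at about 25% in these data; inconclusive = mean inhibition reaches that limit but some replicates miss it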;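 note: 0% = plate neutral control median and 100% = total signal loss; the record names both 10 and 1 µM as test concentration; the first replicate is given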
Target sequence (P42568 whole entry, looked up): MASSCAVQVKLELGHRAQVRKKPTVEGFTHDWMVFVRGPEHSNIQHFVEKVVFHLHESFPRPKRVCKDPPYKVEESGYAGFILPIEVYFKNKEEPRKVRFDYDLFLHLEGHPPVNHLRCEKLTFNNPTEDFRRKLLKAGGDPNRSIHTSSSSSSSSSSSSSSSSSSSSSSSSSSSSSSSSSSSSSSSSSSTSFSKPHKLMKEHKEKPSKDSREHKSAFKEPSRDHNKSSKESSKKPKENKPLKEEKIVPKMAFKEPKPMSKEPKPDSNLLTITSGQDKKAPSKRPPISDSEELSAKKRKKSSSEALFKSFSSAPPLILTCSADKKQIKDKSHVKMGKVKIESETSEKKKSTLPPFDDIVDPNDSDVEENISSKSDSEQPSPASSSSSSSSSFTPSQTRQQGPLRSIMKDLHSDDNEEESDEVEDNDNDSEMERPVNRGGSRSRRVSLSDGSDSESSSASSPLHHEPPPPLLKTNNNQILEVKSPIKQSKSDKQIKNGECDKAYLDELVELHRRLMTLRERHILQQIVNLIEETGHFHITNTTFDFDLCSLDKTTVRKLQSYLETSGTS
RanGTP-Imp inh: inhibitors of RanGTP-importin-beta interaction, primary screen, biochemical, FRET, CFP-Ran, YFP-importin-beta, homogeneous | Ran GTPase (GTP-bound) - importin-beta complex | cell-free CFP-Ran/YFP-importin-beta FRET ratio | inhibition, % (test concentration not listed) | 300,000 compounds, 1.1% hits;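 active = most replicates above 15%; inconclusive = exactly half above 15%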;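 note: 0% = DMSO wells and 100% = Ran loaded with GDP instead of GTP; wells of about 40 µL received 100 nL stock; the first replicate is given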
Calb FLC: C. albicans growth inhibition with fluconazole, primary screen, CaCi-2 strain, Alamar Blue fluorescence. C. albicans CaCi-2 (fluconazole-resistant clinical isolate) + fluconazole, 48 h. growth inhibition, % (no concentration beside the values). 300,000 compounds, 0.57% hits. AID 1979, 2009;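 active = most replicates above 75%; inconclusive = exactly half above 75%; inactive = most below 75%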;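 note: all wells also contain fluconazole at 8 µg/ml as a sub-toxic cotreatment; 0% = median of DMSO wells and 100% = median of geldanamycin control wells; wells of about 8 µL received 7.5 nL stock; the first replicate is given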
T cruzi inh: inhibitors of intracellular T. cruzi growth, primary screen, luminescence, NIH3T3 host cells; T. cruzi beta-gal in NIH3T3, 90 h; inhibition, % (no concentration beside the values); 300,000 compounds, 1.4% hits;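 active = mean inhibition across valid replicates above about 55%, limit read from the data; inconclusive = mean below that limit but half or more replicates reach it; inactive = mean below it, under half of replicates reach it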;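 note: signal also drops with host cell toxicity which is not excluded here; 0% = plate median of DMSO wells and 100% = zero luminescence signal; higher percent means less beta-gal luminescence so fewer parasites; stock transfer was 50 nL into about 50 µL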
A1 inh: caspase 3/7 activation in MEF A1-2A-BIM cells, primary screen, A1 inhibitor project, cell-based, luminescence, HTS. Caspase-Glo 3/7 luminescence, 3 h; percent of clofoctol response, vehicle zero. caspase activation, % (concentration not given with the values). 330,000 compounds, 0.066% hits;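 active = over half of replicate activation scores above 10%, or exactly half above 10 with the replicate mean above 10; inconclusive = replicate mean below 10 yet half the replicates above 10; inactive = over half of replicates below 10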;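 note: wells of about 30 µL received 50 nL stock; many hits fall short of the cut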
Beta cell apopt: inhibitors of cytokine-induced beta cell apoptosis, primary screen, luminescence | protection from apoptosis, % (no concentration beside the values) | 300,000 compounds, 0.8% hits | AID 435005, 2010 | INS-1E cytokine-induced death, ATP luminescence, 48 h; percent of positive-control rescue, neutral wells zero;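 active = all replicates at 75% or more, or half of them and the mean; inconclusive = half reach 75% but not the mean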;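 note: 0% = cytokine-treated negative control wells and 100% = positive control rescue; higher means more ATP so stronger rescue from cytokine killing; wells of about 40 µL received 100 nL stock; the first replicate is given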
LANA-H2B inh: blockers of LANA interaction with H2A/H2B – biochemical, FP readout, HTS, primary screen; Protein LANA1 (Human herpesvirus 8 type P (isolate GK18)), Q9QR71; cell-free LANA-H2A/H2B peptide, fluorescence polarization; inhibition, % (test concentration not listed); 320,000 compounds, 0.6% hits; AID 2629, 2010; in the data active = inhibition mostly above about 10%, no sharp cut-off; inactive = mostly below about 6.7%;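 note: stock transfer was 7.5 nL into about 10 µL; 0% = median of vehicle wells and 100% = median of positive control wells; one replicate is shown; the record names a cut of 25% in any replicate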
Vif TR-FRET: inhibitors of Vif binding to APOBEC3G peptide, primary screen, biochemical, TR-FRET, GST-Vif 1-94, biotin-A3G peptide, dose response retest (AID 1117319); Virion infectivity factor (Human immunodeficiency virus type 1 group M subtype B (isolate …; TR-FRET GST-Vif / biotin-A3G peptide binding; higher % means a stronger effect; test concentration not given here; strong numbers were not always called active; inhibition, %; hits with a dose series show IC50 in µM; 260,000 compounds, 0.57% hits;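 active = above the screen mean plus three standard deviations and confirmed in dose response; inconclusive = results disagree or hit not tested in dose response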;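 note: Vif residues 1-94 fused to GST binding biotinylated APOBEC3G peptide 110-148; 0% = full assay without inhibitor and 100% = GST in place of GST-Vif; retest series ran down from 100 µM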
* = called active by the depositor; ? = inconclusive; . = not tested or not shown.

SMILES,AF4-AF9 inh,RanGTP-Imp inh,Calb FLC,T cruzi inh,A1 inh,Beta cell apopt,LANA-H2B inh,Vif TR-FRET
O=C(CCNS(=O)(=O)c1cccc2nsnc12)Nc1ccc2c(c1)OCCO2,.,-1.7,0,-4,0.5,-3,-3.3,-5%
COc1ccccc1NC(=O)Nc1ccccc1C(=O)NCCCN1CCOCC1,0.7,1.5,6,-5,-0.7,3,7.1,7%
COc1ccc(C2(CNC(=O)c3cccc([N+](=O)[O-])c3)CCOCC2)cc1OC,.,3.9,-2,7,0.0,-7,3.8,.
CC1CCc2cc(F)cc3c(O)c(C(=O)NCc4ccco4)c(=O)n1c23 (stereo not given),.,?,5,-3,.,.,.,-3%
Cc1n[nH]c(C)c1CCCOc1ccccc1,.,-0.6,-2,3,0.0,4,2.2,2%
CCCn1c(NC(=O)C2CCN(C(=O)c3ccccc3C)CC2)nc2ccccc21,0.6,.,-10,1,-0.3,8,-1.1,5%
O=C(CNC(=O)c1ccccc1)OCC(=O)N1c2ccccc2Sc2ccccc21,.,-2.2,-1,-4,-0.4,-5,0.6,9%
Cc1cccc(N2CCN(C(=O)CN3C(=O)NC(C)(C)C3=O)CC2)c1C,16,1.7,8,-11,-0.5,2,1.3,-4%
CCc1ccccc1NC(=O)N1CCC(NC(=O)C(Cc2ccccc2)NC(C)=O)CC1 (stereo not given),0.0,0.2,?,-7,-0.2,-5,2.0,30%
Nc1cc(=O)[nH]c(SCC(=O)c2ccc(O)cc2O)n1,-3.6,3.5,-1,11,0.9,-6,-2.1,-1%
CC(=O)Nc1sc(C)c(C)c1C(=O)OCC(=O)NCc1ccc(F)cc1,-0.3,.,.,.,-1.1,-2,1.5,.
COc1cccc(CN2CCC(n3nccc3NC(=O)CCOc3ccccc3)CC2)c1O,.,4.2,-4,-8,0.3,13,4.9,-5%
O=C(CCN1C(=O)/C(=C\c2ccccc2)SC1=S)N1CCOCC1,3.0,-13,18,-8,0.0,-26,4.6,.
Cc1ccc(C(=O)N2CC3(C)CN(C(=O)c4ccc(C)cc4)CC(C)(C2)C3=O)cc1,0.9,1.7,8,-26,0.0,-3,2.1,-8%
Cc1cccc(NC(=O)c2sc(Cl)nc2-c2ccccc2)c1,.,1.7,14,21,0.3,13,3.1,-190%
CCOc1ccc(OCC)c(NC(=O)CSc2nnc(-c3cccnc3)o2)c1,.,.,-14,0,0.0,5,-8.3,?
Cc1ccc(-c2nnn(CC(=O)N(Cc3cccs3)C(C(=O)NC3CCCC3)c3ccncc3)n2)cc1 (stereo not given),.,?,3,26,-0.1,21,-4.4,9%
Fc1ccc(NC(=S)N/N=C/c2ccc(F)c(F)c2)cc1,-0.2,-0.4,-15,11,-0.7,-4,-2.0,1%
CC(NC(=O)COC(=O)COc1ccc(C(=O)c2ccccc2)cc1)c1ccccc1 (stereo not given),-0.4,.,.,.,-1.5,-3,0.4,.
COc1cccc(C2CC(c3cccs3)=NN2C(=O)CSC2=NCCS2)c1OC (stereo not given),4.5,-1.8,9,8,-0.1,-11,4.4,.
COc1ccc(C(=O)C2CCN(CC(=O)Nc3ccc(C)cc3)CC2)cc1,2.9,0.8,-4,21,-0.6,4,-7.6,.
Cc1cc(C(=O)CN2C(=O)NC(CCS(C)(=O)=O)C2=O)c(C)n1C1CC1 (stereo not given),4.6,.,.,.,0.5,3,-1.1,.
O=C(Nc1ccc(OC(F)F)cc1)c1ccccn1,-0.4,0.6,-57,-20,1.8,-4,0.0,-7%
O=C(c1ccccc1NS(=O)(=O)c1ccc(F)cc1)N1CCc2ccccc21,.,-0.3,1,-11,1.2,-8,7.0,24%
CCc1ccc(OCC(=O)OCC(=O)c2ccc3c(c2)NC(=O)CO3)cc1,1.1,3.0,3,-8,-0.8,-3,-2.1,0%
O=C(NCC1CCCO1)c1cc([N+](=O)[O-])ccc1N1CCC(Cc2ccccc2)CC1 (stereo not given),-4.8,.,.,.,-0.6,10,-2.1,-6%
Cc1ccc(NC(=O)Cn2c(=O)c3cccn3c3ccccc32)c(Cl)c1,0.2,-0.1,0,16,2.3,15,2.3,3%
Cc1cc(/C=C(/C#N)c2cccc(Cl)c2)c(C)n1C,-9.8,-1.4,14,14,0.0,-10,-2.2,-2%
Cc1ccc(CN(C(=O)Cc2cccs2)C(C(=O)NC2CCCC2)c2ccncc2)cc1 (stereo not given),0.3,3.6,-2,59*,-0.2,-3,0.7,5%
O=NC1=C(c2c(O)[nH]c3ccccc23)CCCC1,-3.8,0.5,-9,6,1.6,-2,2.4,3%
CN(c1ccccc1)S(=O)(=O)c1ccc(NC(=O)c2ccco2)cc1,-1.1,2.6,18,8,0.3,4,-8.2,18%
C=CCOc1c(Cl)cc(CNCCCN2CCOCC2)cc1OC,0.3,0.1,-1,56*,0.0,-1,2.7,-19%
O=C(Nc1ccccc1C(=O)O)c1ncn[nH]1,.,5.1,-9,-3,.,.,.,1%
O=C(CNC(=O)c1ccccc1F)NC1CCN(Cc2ccccc2)CC1,4.1,-2.6,-2,0,-0.4,-6,1.9,.
COc1ccc(-c2noc(-c3ccccc3-c3ccccc3)n2)cc1,-14,-0.8,-1,17,0.7,-2,-1.0,2%
CCOc1ccc(/C=N/OCC(=O)Nc2ccc3c(c2)OCO3)cc1,-1.5,2.0,100*,4,-0.2,-7,-2.4,10%
CCOc1ccc(OCCSc2nc3ccccc3o2)cc1,.,4.3,-11,-2,-0.3,0,-0.9,1%
O=C(CCCn1cncn1)N1CCCC(N2CCN(c3ccccc3F)CC2)C1 (stereo not given),0.7,1.3,5,10,-0.4,1,-3.4,.
COc1ccc(Oc2cc(C(F)(F)F)cnc2C(N)=O)cc1,.,-0.1,3,-29,-0.6,6,2.0,13%
CC1(O)C(=O)c2ccccc2N(c2ccccc2)C1=O (stereo not given),.,1.6,-4,-6,-0.2,-15,1.3,.
Cc1sc2ncnc(N3CCC(C(=O)Nc4nc5ccc(Cl)cc5s4)CC3)c2c1C,-22,2.8,-6,27,0.9,.,-15,-11%
COC(=O)C1=C(O)CSC1=Nc1cccc(C(F)(F)F)c1,.,6.3,-13,-19,0.2,-3,2.2,6%
CCOc1ccc(-c2cc(C(=O)NCCCn3ccnc3)c3ccccc3n2)cc1,4.9,2.9,4,1,0.0,8,-2.4,2%
CCc1cccc(C)c1NC(=S)N(Cc1cccnc1)Cc1ccco1,.,-2.0,10,43,0.3,-2,2.8,4%
Cc1ccc(C2CC(=O)C=C(O)C2)cc1 (stereo not given),.,5.8,0,-22,-0.6,-5,2.3,3%
O=C(C1CCN(S(=O)(=O)c2cnc[nH]2)CC1)N1CCN(c2ccc([N+](=O)[O-])cc2)CC1,-6.6,-5.3,-4,-10,?,-8,0.3,.
O=C(NCCCN1CCOCC1)C(=O)NCc1ccc(Cl)cc1,2.1,-0.6,-2,8,0.9,-1,2.2,-7%
Cc1ccc(CNC(=O)CCS(=O)(=O)c2ccc3c(c2)CC(C)N3C(=O)C2CC2)cc1 (stereo not given),-9.7,1.0,26,-12,-0.9,1,6.7,.
CCn1c(CNC(=O)c2cc(OC)c(OC)c(OC)c2)cc2cc(C)ccc21,-3.2,0.6,.,18,0.2,43,4.3,-2%
N/C(=N\OC(=O)COc1ccc(Cl)cc1Cl)c1cccnc1,.,?,33,2,-0.2,-4,-0.2,0%
O=C(c1ccc(Cl)cc1)c1ccc(OCC(O)CN2CCCCC2)cc1 (stereo not given),.,4.3,3,-14,-0.1,2,2.9,-7%
CCOc1c(Br)cc(C(N)=O)cc1OC,.,-2.4,7,-12,0.4,-4,4.5,5%
COc1ccc(C(=O)C2CCCN(C(=O)CSC)C2)cc1OC (stereo not given),-0.2,4.7,3,-3,0.2,-4,-1.9,.
OCCNC(=S)Nc1ccc2nsnc2c1,0.0,-0.6,8,-10,-5.3,-6,-1.3,-14%
CCNS(=O)(=O)c1ccc(NC(=S)N2CCc3ccccc32)cc1,0.0,0.2,-35,11,0.7,0,3.8,.
Cc1ccccc1NC(=O)CSc1ccc(-c2ccco2)nn1,.,-1.1,-16,7,-0.6,4,4.8,.
CCOc1ccc(C(=O)NN2C(=O)C3C4C=CC(O4)C3C2=O)cc1 (stereo not given),.,-2.3,-9,-3,0.6,-11,3.0,-5%
CCCNC(=O)CSc1nc2ccc(OCC)cc2s1,1.0,-0.3,-4,2,0.6,-1,-4.9,-6%
CCOc1ccc(NC(=O)c2cnc3scc(C)n3c2=O)cc1,-3.6,2.9,2,11,-3.7,4,2.0,.
CCOc1ccc(C(=O)NC(=S)Nc2cccnc2)cc1,-1.0,-2.3,5,-11,2.1,-2,3.1,-1%

Carrying on.
SMILES,AF4-AF9 inh,RanGTP-Imp inh,Calb FLC,T cruzi inh,A1 inh,Beta cell apopt,LANA-H2B inh,Vif TR-FRET
COC(=O)c1cc(S(=O)(=O)NCCc2sccc2C)c[nH]1,4.9,0.7,1,-9,0.5,2,0.1,.
Cc1oc(-c2ccccc2Cl)nc1CS(=O)(=O)CC(=O)NC(C)c1ccccc1 (stereo not given),-16,?,-4,13,0.4,-3,-1.2,.
Cc1ccc(Cc2c(C)nc3nc(SCC(=O)NCCCN4CCCC4)nn3c2C)cc1,21,?,-4,21,0.7,.,2.0,.
COc1cc2nc(N(CCCN(C)C)C(=O)c3ccc(S(=O)(=O)N4CCc5ccccc54)cc3)sc2cc1OC,9.4,-2.8,-7,55*,-0.3,.,-1.1,-3%
Cc1ccccc1NC(=O)C(C)N1C(=O)c2ccccc2C1=O (stereo not given),-1.2,-4.9,-7,-20,0.9,-5,0.4,.
Cn1c(N)c(N2CCCCC2)c(=O)n(CC(=O)Nc2cccc(C#N)c2)c1=O,5.4,.,.,.,1.3,1,1.5,-1%
Cc1ccc(C)c2[nH]c(=O)c(CN(CCCN(C)C)C(=O)NCc3ccccc3)cc12,.,-4.4,34,52,0.6,2,6.4,26%
COc1ccc(C(=O)CCC(=O)O)c(C)c1,.,-0.2,-4,-3,0.2,-8,1.6,2%
CCOC(=O)/C(=N\Nc1cccc(C(F)(F)F)c1)N(CCOC)CCOC,.,?,-7,0,-0.2,0,-0.5,-3%
Cc1cccc(C(=O)Nc2sc3c(c2C(=O)O)CCCC3)c1,-6.7,0.0,-3,-10,-5.3,-1,0.4,.
O=C(/C=C/c1ccccc1)C1=C(O)C(=O)N(CCO)C1c1cccc([N+](=O)[O-])c1 (stereo not given),-4.4,0.7,-2,-20,2.6,0,-2.9,11%
CCC(CC)c1nnc(NC(=O)C2CC(=O)N(CCc3ccc(OC)c(OC)c3)C2)s1 (stereo not given),-20,-1.9,-7,5,0.7,0,-5.3,12%
